Assay outcomes from PubChem BioAssay.
GIV Gai3 FP – GIV-Galpha-i interaction inhibition; 0.42% of 210,000 active; Galpha-i3/FITC-GIV peptide fluorescence polarization, 90 min; stronger effect = lower value; scaled: aluminum fluoride 0%, vehicle 100%; percent of control (FP), % (test concentration not listed);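 active = replicate mean at 85% of control or lower, very high polarization wells dropped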;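 note: wells of about 15 µL received 100 nL stock; the first replicate is given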
Target sequence (P08753 whole entry, looked up): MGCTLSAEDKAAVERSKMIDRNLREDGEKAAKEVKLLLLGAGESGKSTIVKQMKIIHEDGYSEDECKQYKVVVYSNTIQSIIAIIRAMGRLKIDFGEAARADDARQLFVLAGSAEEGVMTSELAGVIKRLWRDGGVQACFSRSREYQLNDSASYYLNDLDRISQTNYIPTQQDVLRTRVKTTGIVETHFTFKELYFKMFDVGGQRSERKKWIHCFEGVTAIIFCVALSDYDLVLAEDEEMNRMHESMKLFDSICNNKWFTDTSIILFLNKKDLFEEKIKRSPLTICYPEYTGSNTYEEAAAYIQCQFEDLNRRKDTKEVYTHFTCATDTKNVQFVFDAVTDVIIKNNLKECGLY
* marks the source's active call; other numbers are inactive results. This is a subset, so the mix of outcomes need not match the whole.

SMILES	GIV Gai3 FP
CCn1nccc1-c1csc(S(=O)(=O)NCc2cccs2)c1	108
Fc1ccc(-c2csc(Cc3nc(-c4ccc(Br)cc4)no3)n2)cc1	100
COc1ccc(C2Nc3ccc4ccccc4c3C3=C2C(=O)CC(C)(C)C3)cc1 (stereo not given)	108
CCCN1C(SCC(=O)Nc2ccccc2)=NS(=O)(=O)c2ccccc21	100
CCN1CCN(C(=O)c2cc3c(s2)CCN(C(C)=O)C3)CC1	93
O=C(Nc1cc(Cl)ccc1Oc1ccc2ccccc2c1Cl)c1cc(Cl)cc(Br)c1O	101
CCOC(=O)C1=C(C)NC(=O)NC1c1ccc(C2NC(=O)NC(C)=C2C(=O)OCC)cc1 (stereo not given)	104
CC(=O)C1=C(O)C(=O)N(c2ccc(F)cc2)C1c1ccc2c(c1)OCO2 (stereo not given)	109
Cc1c(C(=O)NCCN(C)c2ccccc2F)sc2ncnc(N3CCOCC3)c12	109
COc1ccc(OC)c(NC(=O)CSc2nccnc2N2CCSCC2)c1	101
O=C(NC(c1cccc([N+](=O)[O-])c1)c1cc(Cl)c2cccnc2c1O)c1cccnc1 (stereo not given)	108
O=C1C2C3c4ccccc4C(c4ccccc43)C2C(=O)N1c1ccc([N+](=O)[O-])cc1 (stereo not given)	108
CCOC(=O)C1CCN(c2ncc(S(=O)(=O)c3ccc(Cl)cc3)c(N)n2)CC1	106
O=C1CC(c2ccc(Cl)cc2)c2cnn(-c3nc4ccccc4s3)c2N1 (stereo not given)	100
Cc1ccccc1N/C(SCc1ccc(Cl)cc1)=C(/C#N)C(N)=O	109
O=C(NN(c1ccccc1)c1ccccc1)C(O)c1ccccc1 (stereo not given)	114
Cc1nc(-c2ccc(C)c(S(=O)(=O)NCC(=O)Nc3cccc(F)c3)c2)no1	101
Cc1ccc2nc(CNC(=O)c3nc(-c4ccc(N5CCC(C)CC5)cc4)no3)[nH]c2c1	104
Cc1ccc(NS(=O)(=O)c2cc(-c3nc(C(C)(C)C)cs3)cs2)c(C)c1	110
COc1cc(Nc2nc(-c3nnn(-c4ccc(Br)cc4F)c3C)ns2)cc(OC)c1	103
c1cn(Cc2noc(-c3ccc4c(c3)OCO4)n2)cn1	99
Clc1cccc(-n2nnnc2C2(N3CCCCC3)CCCC2)c1	113
CCOc1ccc(C2Oc3ccc(OC)cc3C3CC(c4ccc(OC)cc4)=NN32)cc1 (stereo not given)	107
CCOC(=O)c1cc2c(nc1C)-c1ccccc1C2=Nc1ccc2c(c1)Cc1ccccc1-2	103
O=C(NCCCn1ccnc1)/C(=C/c1ccc(Cl)cc1)NC(=O)c1ccccc1	105
COC(=O)C1=C(C(=O)OC)SC(=C2C(=S)C(C)(C)N(C(=O)c3cccc(C)c3)c3ccccc32)S1	104
Cc1nc(N2CCCCC2)c2c(C)c(C(=O)N3CCN(c4ccccn4)CC3)sc2n1	106
C=CCNc1nc(C2(C)CC3(CC(C)OC3=O)C(=O)O2)cs1 (stereo not given)	109
CCOC(=O)c1nc2cc3n(c(C)c-2c1C)C(C)C(CC)=C3C (stereo not given)	106
Cc1nc(N2CCOCC2)c2c(C)c(C(=O)NCCN(C)c3cccc(Cl)c3)sc2n1	103
CCOC(=O)c1c(S(=O)(=O)N2CCCC(C(=O)Nc3ccc(C)cc3)C2)c(C)n(CC)c1C (stereo not given)	101
COC(=O)C12Sc3ccccc3NC(c3ccc(C)cc3)=C1C(=O)C(=O)N2c1ccccc1 (stereo not given)	112
O=S(=O)(c1ccc2c(c1)CCC2)N1CCN(Cc2nc3cccnc3n2-c2cccc(F)c2)CC1	111
Cc1cccc(-c2nc(C3CCN(C(=O)c4cc5ccccc5[nH]4)CC3)no2)c1	99
Cc1ccc(-c2noc(Cc3nc(-c4ccc(Br)cc4)cs3)n2)cc1	131
Cc1ccccc1-c1csc(Nc2ccc(Br)cn2)n1	98
COc1ccc(CNC(=O)CCc2nc(-c3ccc(N4CCCC4)cc3)no2)cc1	102
CCN=C1S/C(=C\c2cn(C(=O)CC)nc2-c2ccc(F)cc2)C(=O)N1CC	101
COc1ccc([N+](=O)[O-])cc1-c1[nH]c(-c2cc(OC)c(OC)c(OC)c2)nc1-c1ccccc1	109
CCCc1nnc2n1N=C(c1ccc(OC)cc1)CS2	112
CCCCN(C)c1ccc2nnc(CCc3nc(-c4cccc(C)c4)no3)n2n1	99
COc1ccc(C2=NN3C(C2)c2cccc(OC)c2OC3c2cccc(Cl)c2)cc1 (stereo not given)	107
C=CCSc1nc(-c2cccs2)cc(-c2ccccc2)c1C#N	112
O=C(CCc1nc(CSc2nc3ccccc3[nH]2)no1)Nc1ccc2c(c1)Cc1ccccc1-2	107
Cc1nnc(NC(=O)CSc2nnc(CNC(=O)COc3ccccc3)n2-c2ccc(Br)cc2)s1	104
COc1cc(C2Nc3ccc4ccccc4c3C3=C2C(=O)CC(C)(C)C3)ccc1OC(C)=O (stereo not given)	108
COC(=O)C(NC(=O)c1ccc(Cl)cc1)(Nc1sc2c(c1C#N)CCC(C)C2)C(F)(F)F (stereo not given)	100
O=C(Nc1ccccc1F)N1CCN(Cc2nc3cccnc3n2-c2cccc(F)c2)CC1	108
COC(=O)CCCC[C@H]1SC[C@@H](NC(=O)c2ccccc2)[C@H]1NC(=O)c1ccccc1	109
CCOc1ccc(-n2c(/C=C/c3ccccc3OC)nc3cc(OC)c(OC)cc3c2=O)cc1	108
Cc1ccc(C)c(NC(=O)CSC2=C(C#N)C(c3cccs3)C3=C(CC(C)(C)CC3=O)N2)c1 (stereo not given)	107
Cc1noc(C)c1C1CCCN1Cc1cn[nH]c1-c1cccs1 (stereo not given)	112
Cc1nn(-c2nc3ccccc3s2)c2c1C(c1ccccc1OC1CCCC1)CC(=O)N2 (stereo not given)	99
COc1cc(OC)cc(-c2noc(CSc3nc4cc5c(cc4c(=O)n3C3CC3)OCO5)n2)c1	103
COc1ccc2c(c1)-c1c(ssc1=S)C(C)(C)N2C(=O)c1cccc([N+](=O)[O-])c1	111
COc1ccc(-c2nnc3n2N=C(c2cc4ccccc4oc2=O)CS3)cc1	109
CC(C)c1ccc(NC(=O)c2cccn3c(-c4ccc(F)cc4)nnc23)cc1	107
Cc1cccc(-n2nnnc2C2(N=Cc3ccc([N+](=O)[O-])cc3)CCCCC2)c1	108
O=C(Cn1cnc2ccccc2c1=O)OCCN(C1=NS(=O)(=O)c2ccccc21)c1ccccc1	109
O=c1c2c(nc3n1CCS3)-c1ccccc1CC21CCCC1	106

Going on with the list:
SMILES	GIV Gai3 FP
Fc1ccc(N2CCN(c3ncnc4c3cnn4-c3ccc(Cl)cc3)CC2)cc1	113
COc1cccc(N2CCN(S(=O)(=O)c3cc(-c4cc(C(F)(F)F)on4)cs3)CC2)c1	100
O=C1/C(=C/c2ccc(-c3ccc([N+](=O)[O-])cc3)o2)C=C(c2ccccc2)N1Cc1ccccc1	116
O=C1CS(=O)(=O)C(c2ccccc2[N+](=O)[O-])N1c1ccc(Cl)c(Cl)c1 (stereo not given)	114
CCCOc1ccc(C2C(C(=O)OC)=CN(Cc3ccc(OC)cc3)C=C2C(=O)OC)cc1OC	103
CC(C)Sc1c(C(C)C)cnc2c1c(=O)n(C)c(=O)n2C	105
CCOC(=O)c1sc2ncnc(N3CCC4(CC3)OCCO4)c2c1C	103
CN1CCc2nc(SCC(=O)OC(C)(C)C)c(C#N)c(-c3cccs3)c2C1	113
CCCCn1c(CNC(=O)COc2ccccc2)nnc1SCC(=O)Nc1sc2c(c1C(=O)OCC)CCC2	104
Fc1ccc(Nc2nc3nonc3nc2N2CCCC2)cc1	110
Cc1ccc(C)c(N2CCN(C(=O)c3c[nH]c4ccc(S(=O)(=O)N5CCC(C)CC5)cc4c3=O)CC2)c1	111
O=C(Nc1ccc(Br)cc1)c1ccc(F)c(S(=O)(=O)NCCc2ccccc2)c1	101
COc1ccc(C2C(C#N)=C(N)Oc3n[nH]c(-c4cccs4)c32)c(OC)c1OC (stereo not given)	106
O=S(=O)(c1ccc(F)cc1F)N1CCC(c2noc(-c3cccc(F)c3)n2)CC1	102
CCc1ccc2c(c1)C(O)(C1SC(N)=NC1=O)C(=O)N2 (stereo not given)	103
CCN(CC)c1nc(C)nc2sc(C(=O)N3CCC(C(N)=O)(N4CCCCC4)CC3)c(C)c12	101
COC(=O)C1=C(C(=O)OC)SC(=C2C(=S)C(C)(C)N(C(=O)c3cccc([N+](=O)[O-])c3)c3ccc(OC)cc32)S1	115
Cc1ccc(C)c(S(=O)(=O)N2CCC(c3noc(-c4ccccc4)n3)CC2)c1	103
CN(CCc1noc(C(=O)NCc2ccccc2)n1)C(=O)C1CC1	104
Cc1c(CC(Cl)(Cl)Cl)c2c(n1-c1ccc(F)c([N+](=O)[O-])c1)CC(C)(C)CC2=O	109
COc1cc(/C=C2\CCC/C(=C\c3cc(OC)c(OC)c(OC)c3)C2=O)cc(OC)c1OC	101
COc1ccc(Nc2c(C(=O)N3CC(=O)Nc4ccccc43)cc([N+](=O)[O-])cc2[N+](=O)[O-])cc1	101
CCC(=O)Nc1cccc(-c2cc3ccccc3[nH]2)c1	103
COC(=O)c1ccc(C(=O)OC)c(NC(=O)c2cc3nc(-c4ccc(OC)c(OC)c4)cc(C(F)(F)F)n3n2)c1	107
COC(=O)c1ccccc1NC(=O)CSc1nc(N2CCc3ccccc3C2)nc2ccccc12	107
COc1ccc(C2CC(=O)C3=C(C2)Nc2ccccc2NC3c2ccc(F)c(Br)c2)cc1OC (stereo not given)	102
CCN1CCN(c2ccc3nnc(C4CCC4)n3n2)CC1	105
CCc1nc(CN2C(=O)COc3cc(S(=O)(=O)NC4CC4)c(C)cc32)no1	100
CCCCCCCCCCCCCCCCCCOCC1OC2OC(C)(C)OC2C2OC(C)(C)OC12 (stereo not given)	104
O=C(NCCc1ccc(Cl)cc1)c1ccc2c(c1)[nH]c(=S)n1c3ccccc3nc21	111
CN(C(=O)c1ccc(Oc2ccnc(-c3ccc(F)cc3)n2)cc1)C1CCCCC1	99
COc1ccc(N2C(=O)/C(=C/c3ccc(-c4ccc([N+](=O)[O-])cc4)o3)C=C2c2ccccc2)cc1	117
O=C(NCc1ccco1)c1nc(C2CC2)nc2c1OCCO2	114
O=C(ON1C(=O)CN(C(=O)c2ccco2)C1c1ccccc1)c1ccco1 (stereo not given)	114
CCNC(=O)NC1CCN(C(=O)C2CCC2)C1 (stereo not given)	102
Cc1ccc(S(=O)(=O)CCC(=O)Nc2nc(-c3ccncc3)cs2)cc1	94
CC1(C)CC(=O)c2cc(-c3ccccc3)n(CC(=O)OCC(=O)c3ccccc3)c2C1	108
Cc1nn(-c2ccc3nnc(C)n3n2)c2c1C(c1ccccc1OC1CCCC1)CC(=O)N2 (stereo not given)	100
CC1(C)CC(=O)C2=C(C1)OC(N)=C(C#N)C2C1CCN(C(=O)OCc2ccccc2)CC1 (stereo not given)	106
Cc1ccc(NC(=O)CSc2cc(N3CCC(C)CC3)ncn2)c(C)c1	103
N#CC1=C(N)OC2=C(C(=O)CC(c3ccccc3)C2)C1c1ccccc1C(F)(F)F (stereo not given)	102
COc1ccc(N=c2ssc3c2-c2cc(OC)ccc2NC3(C)C)c(OC)c1	103
CCC1CCC2(CC1)NC(=S)N(c1ccc(Cl)cc1)N2 (stereo not given)	107
CCOc1ccccc1NC(=O)N1CCCC(C)(C(=O)NCc2ccccc2)C1 (stereo not given)	101
COc1cccc(-c2cn3c4c(=O)n(C)c(=O)n(C)c4nc3n2-c2cccc(C)c2)c1	107
COc1ccc(OC)c(Nc2ncnc3c2cnn3-c2ccc(C)cc2C)c1	104
Cc1ccc(-c2cc(N3CCN(C(=O)NC(C)(C)C)CC3)ncn2)cc1	100
COC(=O)C1=CN(Cc2ccc(OC)c(OC)c2)C=C(C(=O)OC)C1c1ccc(F)c(Br)c1	109
COc1ccccc1-c1cc(C(F)(F)F)n2ncc(C(=O)N3CCCC3c3cc(C)no3)c2n1 (stereo not given)	108
CC(C)NS(=O)(=O)c1ccc(-c2cnc(C3CCCC3)o2)s1	113
Clc1ccc(-c2nc(NCC3CCCO3)c3ccccc3n2)cc1 (stereo not given)	110
CN1CCN(S(=O)(=O)c2cc(F)cc(F)c2)CC1c1ccc(F)cc1 (stereo not given)	104
O=C(CSc1nc2cc(C(=O)NCc3ccco3)ccc2c(=O)n1CC1CCCO1)c1ccc(Cl)cc1 (stereo not given)	113
COC(=O)c1c(-c2ccc(F)cc2)noc1Nc1cc(Cl)c(OC)cc1OC	104

Of the compounds above, these have two or more sulfur atoms.
SMILES	GIV Gai3 FP
CCn1nccc1-c1csc(S(=O)(=O)NCc2cccs2)c1	108
CCCN1C(SCC(=O)Nc2ccccc2)=NS(=O)(=O)c2ccccc21	100
COc1ccc(OC)c(NC(=O)CSc2nccnc2N2CCSCC2)c1	101
Cc1ccc(NS(=O)(=O)c2cc(-c3nc(C(C)(C)C)cs3)cs2)c(C)c1	110
COC(=O)C1=C(C(=O)OC)SC(=C2C(=S)C(C)(C)N(C(=O)c3cccc(C)c3)c3ccccc32)S1	104
C=CCSc1nc(-c2cccs2)cc(-c2ccccc2)c1C#N	112
Cc1nnc(NC(=O)CSc2nnc(CNC(=O)COc3ccccc3)n2-c2ccc(Br)cc2)s1	104
Cc1ccc(C)c(NC(=O)CSC2=C(C#N)C(c3cccs3)C3=C(CC(C)(C)CC3=O)N2)c1 (stereo not given)	107
COc1ccc2c(c1)-c1c(ssc1=S)C(C)(C)N2C(=O)c1cccc([N+](=O)[O-])c1	111
COc1cccc(N2CCN(S(=O)(=O)c3cc(-c4cc(C(F)(F)F)on4)cs3)CC2)c1	100
CN1CCc2nc(SCC(=O)OC(C)(C)C)c(C#N)c(-c3cccs3)c2C1	113
CCCCn1c(CNC(=O)COc2ccccc2)nnc1SCC(=O)Nc1sc2c(c1C(=O)OCC)CCC2	104
COC(=O)C1=C(C(=O)OC)SC(=C2C(=S)C(C)(C)N(C(=O)c3cccc([N+](=O)[O-])c3)c3ccc(OC)cc32)S1	115
Cc1ccc(S(=O)(=O)CCC(=O)Nc2nc(-c3ccncc3)cs2)cc1	94
COc1ccc(N=c2ssc3c2-c2cc(OC)ccc2NC3(C)C)c(OC)c1	103
CC(C)NS(=O)(=O)c1ccc(-c2cnc(C3CCCC3)o2)s1	113
